PKD1 inh = inhibitors of human PKD1 kinase, biochemical, fluorescence polarization; Serine/threonine-protein kinase D1 (Homo sapiens), Q15139; PKD1 kinase fluorescence polarization assay; inhibition, %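 (about 10 µM by stock and volumes)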; 200,000 tested, 0.056% active; AID 797, 2007;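 active = inhibition of 50% or more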;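 note: controls were vehicle for no effect and a reference inhibitor for full effect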
Target sequence (Q15139 whole entry, looked up): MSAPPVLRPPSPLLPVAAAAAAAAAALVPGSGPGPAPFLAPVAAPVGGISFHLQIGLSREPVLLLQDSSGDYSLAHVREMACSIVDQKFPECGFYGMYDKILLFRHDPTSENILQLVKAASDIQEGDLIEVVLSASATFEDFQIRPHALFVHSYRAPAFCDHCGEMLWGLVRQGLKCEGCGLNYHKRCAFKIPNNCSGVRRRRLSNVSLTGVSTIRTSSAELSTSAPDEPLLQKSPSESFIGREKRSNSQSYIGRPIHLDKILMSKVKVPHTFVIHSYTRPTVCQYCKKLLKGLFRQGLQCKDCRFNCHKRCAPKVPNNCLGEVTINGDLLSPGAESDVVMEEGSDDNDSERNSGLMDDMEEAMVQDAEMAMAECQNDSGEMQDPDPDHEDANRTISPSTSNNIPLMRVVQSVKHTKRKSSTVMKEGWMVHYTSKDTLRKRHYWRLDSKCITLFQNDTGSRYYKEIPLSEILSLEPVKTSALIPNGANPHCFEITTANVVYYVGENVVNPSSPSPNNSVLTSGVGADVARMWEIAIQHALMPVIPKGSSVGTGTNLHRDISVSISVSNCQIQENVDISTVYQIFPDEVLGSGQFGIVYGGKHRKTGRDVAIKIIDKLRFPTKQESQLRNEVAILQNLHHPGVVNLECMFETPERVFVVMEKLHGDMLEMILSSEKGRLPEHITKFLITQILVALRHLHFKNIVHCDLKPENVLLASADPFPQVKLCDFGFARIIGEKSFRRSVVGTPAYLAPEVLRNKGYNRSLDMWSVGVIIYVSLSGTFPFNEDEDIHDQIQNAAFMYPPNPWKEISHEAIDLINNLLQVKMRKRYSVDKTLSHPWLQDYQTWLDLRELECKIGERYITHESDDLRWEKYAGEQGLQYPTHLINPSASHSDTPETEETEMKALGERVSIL
RGS16-Gao = modulators of RGS16 binding to Galphao, primary screen, biochemical, human proteins, multiplexed bead flow cytometry | bead-based flow cytometry RGS16-Galphao binding, fluorescence; actives lie on both sides | binding response (% of control), % at 10 µM | 220,000 tested, 0.38% active;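 active = below 25% or above 175%, edge rows of some plates excepted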;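 note: Galphao activated by GDP with aluminum fluoride before binding; 100% = wells without compound and 0% = beads without RGS; some results beyond the cut were filed as inactive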
HSV replic up = enhancers of HSV replication in host cells, fold increase, host cell viability. HSV replication augmentation in cells. maximum fold increase. 220,000 tested, 0.005% active. AID 1956, 2009;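 active = peak rise of 1.5-fold or more in the series; tested in PC3 cells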;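 note: first round at 10 µM; read as green reporter fluorescence; hits show the peak of a series up to 25 µM; 1 = signal of infected wells without compound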
GALR2 agonist = GALR2 receptor agonists, primary screen, cell-based; activation, %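 (tested at 5 µM)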; GALR2-expressing cells, agonist activation read-out; 140,000 tested, 0.48% active; Galanin receptor type 2 (Homo sapiens), O43603;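 active = above mean plus 3 SD of all compounds, about 5% in these data, not always enough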;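 note: 0% = vehicle buffer wells and 100% = reference agonist at full effect; tested in CHO reporter cells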
INS promoter inh = inhibitors of insulin promoter-driven GFP, primary screen, imaging, TRM-6 cells (human fetal islet line), eGFP reporter, cell count; reporter expression induced with tamoxifen; inhibition, % at 2 µM; 130,000 tested, 0.9% active;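 active = inhibition above the mean plus 3 SD, with well images judged a real hit on visual review, cut at about 60% in these data, passing the limit was not always enough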
INS promoter inh cell count = second read-out of INS promoter inh, no call of its own (marks repeat the call); normalized cell count, %; measured here: cell count, toxicity; reference of the scale not given here;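 cells exposed to compound for 48 h; stained nuclei by imaging scaled within each plate; lower means fewer cells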
HSV replic up primary fold = further read-out of HSV replic up, marked with its call; fold increase; compound at 10 µM; measured here: primary screen fold increase 10 uM; tested in PC3 cells;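 GFP signal in the first replicate; 1 = infected wells without compound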
The depositor's hits bear a star.

How did CC(Oc1ccccc1F)C(=O)/C=C/N(C)C (stereo not given) do in these assays?
PKD1 inh: -7.8; RGS16-Gao: 97.8; HSV replic up: inactive; GALR2 agonist: -1.9; INS promoter inh: 17.4; INS promoter inh cell count: 102.7; HSV replic up primary fold: 0.91

Results for O=C1CCCC(=O)C1C1c2ccccc2CCN1C(=O)CCl (stereo not given) ?
RGS16-Gao: 104.5; HSV replic up: inactive; HSV replic up primary fold: 1.11

What do the screens show for `Cc1nn(Cc2cccc(C(=O)NN)c2)c(C)c1Cl`?
RGS16-Gao: 104.6; HSV replic up: inactive; HSV replic up primary fold: 0.93

How did O=C(Nc1ccccc1F)Nc1cccc2ccc(O)cc12 do in these assays?
RGS16-Gao: 92.4; HSV replic up: inactive; HSV replic up primary fold: 1.02

Results for COCCCNc1nc(=S)[nH]c2cc(OC)c(OC)cc12 ?
PKD1 inh: -11.7; RGS16-Gao: 100.5; HSV replic up: inactive; GALR2 agonist: -0.7; HSV replic up primary fold: 1.14

How did CCOc1ccc(NC(=O)Cn2nnc(-c3ccccc3F)n2)cc1 do in these assays?
PKD1 inh: -7.5; RGS16-Gao: 108.1; HSV replic up: inactive; GALR2 agonist: -4.5; INS promoter inh: -79.3; INS promoter inh cell count: 101.2; HSV replic up primary fold: 1.03

Results for Brc1cccc(CN2CCCCCCC2)c1 ?
PKD1 inh: 2.9; RGS16-Gao: 106.8; HSV replic up: inactive; GALR2 agonist: -3.4; HSV replic up primary fold: 0.89

What do the screens show for `COCCn1cnc2c(c1=O)c1nc3ccccc3nc1n2/N=C/c1cccc(OC)c1`?
RGS16-Gao: 101.5; HSV replic up: inactive; HSV replic up primary fold: 0.82

How did CCOC1(/N=C(\C)NS(=O)(=O)c2ccc(Cl)cc2)C(C)=CC(=O)C=C1C do in these assays?
PKD1 inh: 1.2; RGS16-Gao: 100.2; HSV replic up: inactive; HSV replic up primary fold: 0.97

Results for COc1ccc(C2C(=O)N(C3CCCCC3)CC(=O)N2C2CCCCC2)cc1 (stereo not given) ?
PKD1 inh: 5.5; RGS16-Gao: 106.6; HSV replic up: inactive; GALR2 agonist: 1.2; INS promoter inh: 3.2; INS promoter inh cell count: 114.6; HSV replic up primary fold: 1.11

Results for NC(=O)CCS(=O)(=O)CCN1CCCCC1 ?
PKD1 inh: -8.8; RGS16-Gao: 104.4; HSV replic up: inactive; GALR2 agonist: 0.4; INS promoter inh: 22.2; INS promoter inh cell count: 47.8; HSV replic up primary fold: 0.92

How did Cc1cc(N2CCCC2)nc2c(C)cccc12 do in these assays?
PKD1 inh: -4.3; RGS16-Gao: 100.6; HSV replic up: inactive; HSV replic up primary fold: 1.15

What do the screens show for `C#Cc1cccc(NC(=O)CSc2nnc(-c3ccc(C(F)(F)F)cn3)o2)c1`?
RGS16-Gao: 105.9; HSV replic up: inactive; HSV replic up primary fold: 0.92

Results for COc1ccc(C)cc1NC(=O)CN(C)S(=O)(=O)c1cnc[nH]1 ?
PKD1 inh: -8.2; RGS16-Gao: 102.4; HSV replic up: inactive; GALR2 agonist: 5.6; INS promoter inh: 46.1; INS promoter inh cell count: 84.2; HSV replic up primary fold: 1.02

Results for CCN1CCCC1CNC(=O)Cn1ncc2c(=O)oc3ccc(C)cc3c21 (stereo not given) ?
PKD1 inh: 1.7; RGS16-Gao: 97.9; HSV replic up: inactive; GALR2 agonist: -0.7; HSV replic up primary fold: 0.89

Results for O=C(Nc1cccc(O)c1)c1noc2c1CCc1ccccc1-2 ?
PKD1 inh: -0.9; RGS16-Gao: 105.5; HSV replic up: inactive; GALR2 agonist: -0.6; INS promoter inh: -35.5; INS promoter inh cell count: 148.3; HSV replic up primary fold: 1.06

How did COc1ccc(CNC(=O)c2ccc(Br)o2)cc1 do in these assays?
PKD1 inh: -3.9; RGS16-Gao: 99.3; HSV replic up: inactive; GALR2 agonist: -1.2; INS promoter inh: 42.9; INS promoter inh cell count: 99.3; HSV replic up primary fold: 1.04

What do the screens show for `COc1ccc(C(F)(F)F)cc1N/C=C/c1nnnn1-c1ccc2ccccc2c1`?
RGS16-Gao: 91.7; HSV replic up: inactive; HSV replic up primary fold: 0.82

How did Cc1cc(C)n(C(=O)c2cccc(S(=O)(=O)N3CCCCC3)c2)n1 do in these assays?
RGS16-Gao: 100.3; HSV replic up: inactive; HSV replic up primary fold: 1.08

How did CN(C)c1nc(N)nc(CSc2nnnn2C)n1 do in these assays?
PKD1 inh: -0.4; RGS16-Gao: 96.8; HSV replic up: inactive; GALR2 agonist: 1.7; INS promoter inh: 33.3; INS promoter inh cell count: 76.2; HSV replic up primary fold: 0.99

What do the screens show for `C=CCC1(O)C(=O)Nc2ccccc21` (stereo not given)?
PKD1 inh: -4.2; RGS16-Gao: 102.8; HSV replic up: inactive; GALR2 agonist: -4.0; INS promoter inh: -27.6; INS promoter inh cell count: 76.9; HSV replic up primary fold: 0.97

What do the screens show for `CCOCCCNC(=O)c1ccccc1OC1CCN(S(C)(=O)=O)CC1`?
PKD1 inh: 1.5; RGS16-Gao: 108.4; HSV replic up: inactive; HSV replic up primary fold: 0.92

How did CC(=O)N1CCc2cc(S(=O)(=O)CCC(=O)N3CCN(c4ccccn4)CC3)ccc21 do in these assays?
PKD1 inh: -8.9; RGS16-Gao: 97.0; HSV replic up: inactive; GALR2 agonist: -0.9; INS promoter inh: -56.2; INS promoter inh cell count: 144.0; HSV replic up primary fold: 1.14

What do the screens show for `O=C(c1ccc2c(c1)OCO2)C1CCCN(C(=O)Nc2ccc(F)cc2F)C1` (stereo not given)?
PKD1 inh: 3.7; RGS16-Gao: 111.8; HSV replic up: inactive; HSV replic up primary fold: 0.76

Results for CCOC(=O)C(NCCc1ccc(F)cc1)(NC(=O)CC)C(F)(F)F (stereo not given) ?
PKD1 inh: -0.4; RGS16-Gao: 105.2; HSV replic up: inactive; GALR2 agonist: -0.6; INS promoter inh: 20.0; INS promoter inh cell count: 114.5; HSV replic up primary fold: 0.96

What do the screens show for `Cc1c(Cl)cccc1N(CC(=O)N1CCCCCC1)S(C)(=O)=O`?
PKD1 inh: -6.9; RGS16-Gao: 103.2; HSV replic up: inactive; GALR2 agonist: -1.7; INS promoter inh: 15.4; INS promoter inh cell count: 122.3; HSV replic up primary fold: 0.84

How did C=CCC(=O)OCC(=O)Nc1ccc(Oc2ccccc2)cc1 do in these assays?
PKD1 inh: -2.1; GALR2 agonist: -2.5

How did CC(NC(=O)Cc1ccsc1)c1ccc(S(N)(=O)=O)cc1 (stereo not given) do in these assays?
PKD1 inh: -6.9; RGS16-Gao: 103.0; HSV replic up: inactive; GALR2 agonist: -0.7; INS promoter inh: -14.3; INS promoter inh cell count: 132.5; HSV replic up primary fold: 0.92

Results for CCOC(=O)N1CCN(CC(=O)c2c[nH]c3ccc(F)cc23)CC1 ?
PKD1 inh: -6.6; RGS16-Gao: 102.9; HSV replic up: inactive; GALR2 agonist: -1.5; INS promoter inh: 2.8; INS promoter inh cell count: 190.6; HSV replic up primary fold: 0.98

Results for CCOC(=O)C(C)C1(O)c2ccccc2-c2ncccc21 (stereo not given) ?
PKD1 inh: 5.6; RGS16-Gao: 91.0; HSV replic up: inactive; GALR2 agonist: -1.4; HSV replic up primary fold: 0.92

Results for O=C(N/N=C/c1cccs1)C(=O)Nc1cccc(Cl)c1 ?
PKD1 inh: -2.8; RGS16-Gao: 103.5; HSV replic up: inactive; HSV replic up primary fold: 0.98

How did CN1CCN(C(=O)CSc2nc(-c3cccs3)ccc2C#N)CC1 do in these assays?
PKD1 inh: -7.0; RGS16-Gao: 90.0; HSV replic up: inactive; GALR2 agonist: -1.3; INS promoter inh: -36.1; INS promoter inh cell count: 252.5; HSV replic up primary fold: 0.9

Results for O=C(CSc1ncnc2scc(-c3ccc(F)cc3)c12)c1ccc2c(c1)OCCO2 ?
PKD1 inh: 7.5; RGS16-Gao: 97.5; HSV replic up: inactive; GALR2 agonist: -0.5; INS promoter inh: 40.0; INS promoter inh cell count: 120.9; HSV replic up primary fold: 1.04

Results for CCOc1cccc2cc(C(=O)Nc3ccccc3-c3ccccc3)c(=O)oc12 ?
PKD1 inh: -11.4; RGS16-Gao: 38.5; HSV replic up: inactive; GALR2 agonist: -1.2; INS promoter inh: 64.3; INS promoter inh cell count: 105.2; HSV replic up primary fold: 0.97

Results for COc1ccc(S(=O)(=O)NCC2CCCN(C(=O)CNC(C)=O)C2)cc1 (stereo not given) ?
PKD1 inh: -6.2; RGS16-Gao: 111.1; HSV replic up: inactive; HSV replic up primary fold: 1.05

Results for CCCc1[nH][nH]c(=O)c1C(c1ccc(Cl)cc1)C(C#N)C#N (stereo not given) ?
PKD1 inh: -10.5; RGS16-Gao: 96.3; HSV replic up: inactive; GALR2 agonist: -1.5; INS promoter inh: 57.1; INS promoter inh cell count: 123.4; HSV replic up primary fold: 0.84

Results for C#CCOC(=O)CCCC(=O)NCCCCCCCC ?
PKD1 inh: 2.2; RGS16-Gao: 106.7; HSV replic up: inactive; HSV replic up primary fold: 0.79

What do the screens show for `Cc1ccc(N=Cc2c(O)n(-c3ccc4c(c3)OCO4)c(=O)c3ccccc23)cc1`?
PKD1 inh: 3.7; RGS16-Gao: 109.7; HSV replic up: inactive; GALR2 agonist: -0.6; INS promoter inh: 51.7; INS promoter inh cell count: 74.7; HSV replic up primary fold: 0.89

How did CCC(=O)NS(=O)(=O)c1ccc(N=NN2CCCCC2)cc1 do in these assays?
PKD1 inh: 6.9; RGS16-Gao: 87.6; HSV replic up: inactive; GALR2 agonist: -1.2; INS promoter inh: -28.0; INS promoter inh cell count: 72.8; HSV replic up primary fold: 1.06

Results for CCN(CC)S(=O)(=O)c1cccc(NC(=O)COc2ccc(C#N)cc2OC)c1 ?
PKD1 inh: 0.2; RGS16-Gao: 107.0; HSV replic up: inactive; GALR2 agonist: -0.8; INS promoter inh: 2.0; INS promoter inh cell count: 130.7; HSV replic up primary fold: 0.95

What do the screens show for `CCCC(c1nnnn1CC(=O)OCC)N(Cc1cc2ccc(C)cc2[nH]c1=O)C1CCCC1` (stereo not given)?
PKD1 inh: -10.3; RGS16-Gao: 100.8; HSV replic up: inactive; GALR2 agonist: 0.6; INS promoter inh: 25.0; INS promoter inh cell count: 129.4; HSV replic up primary fold: 0.87

How did CN(C1CCCCC1)S(=O)(=O)c1ccc(NC(=S)NC(=O)c2cccs2)cc1 do in these assays?
PKD1 inh: -2.2; RGS16-Gao: 93.2; HSV replic up: inactive; GALR2 agonist: 0.8; INS promoter inh: -6.7; INS promoter inh cell count: 73.7; HSV replic up primary fold: 0.7

How did CN(C)c1nc2c(c(=O)[nH]c(=O)n2C)n1Cc1ccccc1Br do in these assays?
PKD1 inh: 12.1; RGS16-Gao: 100.7; HSV replic up: inactive; GALR2 agonist: 0.2; INS promoter inh: -18.2; INS promoter inh cell count: 112.2; HSV replic up primary fold: 0.68

How did COC(=O)C1=C(C)N(CC2CCCO2)C(=O)C1 (stereo not given) do in these assays?
PKD1 inh: -12.4; RGS16-Gao: 103.2; HSV replic up: inactive; GALR2 agonist: -1.6; HSV replic up primary fold: 0.95

Results for COC(=O)Nc1nnc(-c2ccccc2Cl)s1 ?
PKD1 inh: -1.8; RGS16-Gao: 120.5; HSV replic up: inactive; GALR2 agonist: 0.6; INS promoter inh: -75.0; INS promoter inh cell count: 63.6; HSV replic up primary fold: 0.88

What do the screens show for `C=CCNc1cnn(-c2ccc(C)cc2)c(=O)c1Sc1ccc(C)cc1`?
PKD1 inh: 9.8; RGS16-Gao: 99.8; HSV replic up: inactive; HSV replic up primary fold: 0.93

How did Cc1cccc(NC(=O)C(=O)NCc2ccc3c(c2)OCO3)c1C do in these assays?
PKD1 inh: -11.4; RGS16-Gao: 94.8; HSV replic up: inactive; INS promoter inh: 4.8; INS promoter inh cell count: 118.8; HSV replic up primary fold: 0.87

Results for Cc1ccc(CC(NC(=O)c2ccccc2)C(=O)NCC(=O)O)cc1 (stereo not given) ?
PKD1 inh: -2.9; RGS16-Gao: 101.5; HSV replic up: inactive; GALR2 agonist: -0.8; INS promoter inh: -32.1; INS promoter inh cell count: 80.0; HSV replic up primary fold: 0.87

A draw from above in order of molecular weight, rising:
What do the screens show for `C=CCC1(O)C(=O)Nc2ccccc21` (stereo not given)?
PKD1 inh: -4.2; RGS16-Gao: 102.8; HSV replic up: inactive; GALR2 agonist: -4.0; INS promoter inh: -27.6; INS promoter inh cell count: 76.9; HSV replic up primary fold: 0.97

Results for O=C(Nc1cccc(O)c1)c1noc2c1CCc1ccccc1-2 ?
PKD1 inh: -0.9; RGS16-Gao: 105.5; HSV replic up: inactive; GALR2 agonist: -0.6; INS promoter inh: -35.5; INS promoter inh cell count: 148.3; HSV replic up primary fold: 1.06

How did CN1CCN(C(=O)CSc2nc(-c3cccs3)ccc2C#N)CC1 do in these assays?
PKD1 inh: -7.0; RGS16-Gao: 90.0; HSV replic up: inactive; GALR2 agonist: -1.3; INS promoter inh: -36.1; INS promoter inh cell count: 252.5; HSV replic up primary fold: 0.9
